Source: PubChem (National Center for Advancing Translational Sciences (NCATS))
SARS PLP yeast: qHTS of Yeast-based Assay for SARS-CoV PLP | Potency, µM (highest dose often 32.9 µM), without a hit: at the highest dose activity, positive = growth rescue | AID 485353, 2010 | 330,000 compounds, 0.19% hits | S. cerevisiae expressing SARS-CoV PLpro, growth rescue; control for the full effect not named in the record; active means well fitted rising curve with a large enough effect; inconclusive means small, poorly fitted or top-dose-only effect; inactive means no such curve, though single readings can be large or run the other way; further: 0% is about no effect; nearly all actives have a fitted effect of over 55% in size; growth read by luminescence after 48 h
NS1 function inh: qHTS Assay for Inhibitors of Influenza NS1 Protein Function; AID 2326, 2010; S. cerevisiae slowed by influenza A NS1, growth recovery by OD600; Potency, µM (series often up to 46.1 µM), for inactives: at the highest dose activity, positive = more growth; 270,000 compounds, 0.4% hits; active means well fitted rising curve with a large enough effect; inconclusive means small, poorly fitted or top-dose-only effect; inactive means no such curve, though single readings can be large or run the other way; further: nearly all actives have a fitted effect of over 50% in size
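OD600 was taken as the measure of yeast growth restored by compound in an NS1-expressing S. cerevisiae strain. Cells had been washed out of glucose medium and diluted 1:100 into galactose -URA medium, pH 6.0.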
Marburg entry inh: qHTS for inhibitors of binding or entry into cells for Marburg Virus; Marburg virus pseudotyped entry inhibition, cell reporter; control for the full effect not named in the record; about a third of the inactives were read at about 46 µM; 300,000 compounds, 1.8% hits; Potency, µM (series often up to 37.8 µM), without a hit: top-dose activity change, negative = inhibition, actives largely listed as inhibitors; active = well fitted inhibition curve with a large enough effect; inconclusive = small, poorly fitted or top-dose-only effect, or effect the other way; inactive = flat fitted curve, though single readings scatter; tested in HEK293 cells; about a fifth of its hits are not listed in these tables; further: on the % scale 0 is the no-effect control and ±100 the full control effect; luciferase read-out
Lassa entry inh: qHTS for Inhibitors of binding or entry into cells for Lassa Virus; 300,000 compounds, 1.2% hits; Lassa virus pseudotype entry inhibition, cell reporter; control for the full effect not named in the record; Potency, µM (doses to about 37.9 µM), for the others: at the highest dose activity change, negative = inhibition, usual class: inhibitors; active means well fitted inhibition curve with a large enough effect; inconclusive means small, poorly fitted or top-dose-only effect, or effect the other way; inactive means flat fitted curve, though single readings scatter; tested in HEK293 cells; further: on the % scale 0 is the no-effect control and ±100 the full control effect; nearly all actives have a fitted effect of over 50% in size; luciferase read-out
2A StopGo: High Throughput Screening for Foot and Mouth Disease Virus Antivirals; human cells with a luciferase reporter of 2A StopGo recoding; control for the full effect not named in the record; Potency, µM (doses to about 57.9 µM), for the others: top-dose signal change, negative = less light; 410,000 compounds, 1.2% hits; AID 1159524, 2015; active = well fitted falling curve with a large enough effect; inconclusive = small, poorly fitted or top-dose-only effect; inactive = no such curve, though single readings can be large or run the other way; tested in HEK293T cells; further: on the % scale 0 is the no-effect control and ±100 the full control effect; nearly all actives have a fitted effect of over 45% in size; luciferase light after 4 h
Cruzain Triton: qHTS Assay for Promiscuous and Specific Inhibitors of Cruzain (with detergent). purified cruzain, Z-FR-AMC fluorescence, 0.01% Triton. Potency, µM, for inactives: max response, negative = inhibition, actives largely listed as inhibitors. 200,000 compounds, 0.43% hits. AID 1478, 2009;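 further: plate controls were neutral wells for no effect and buffer without enzyme for full effect; nearly all actives have a fitted effect of over 40% in size; top concentration of the series not given in the record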
Target sequence (P25779 123-467 limits assumed): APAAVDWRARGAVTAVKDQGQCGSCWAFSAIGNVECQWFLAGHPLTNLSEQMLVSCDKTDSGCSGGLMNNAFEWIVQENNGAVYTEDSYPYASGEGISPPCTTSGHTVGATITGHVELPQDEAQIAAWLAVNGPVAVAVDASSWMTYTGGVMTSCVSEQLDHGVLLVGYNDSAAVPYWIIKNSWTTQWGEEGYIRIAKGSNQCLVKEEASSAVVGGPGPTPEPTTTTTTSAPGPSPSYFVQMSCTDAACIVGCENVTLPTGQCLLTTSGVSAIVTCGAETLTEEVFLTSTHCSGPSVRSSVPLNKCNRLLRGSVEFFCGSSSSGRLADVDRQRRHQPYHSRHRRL
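15 min RT preincubation of 1.5 nM cruzain with compound, then 2 uM Z-FR-AMC added; kinetic AMC fluorescence, 60 s delta. Triton X-100 0.01%, pH 5.5.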
Cruzain noTriton: qHTS Assay for Promiscuous and Specific Inhibitors of Cruzain (without detergent) | Cruzipain (Trypanosoma cruzi), P25779 | 200,000 compounds, 2.3% hits | Potency, µM, without a hit: max response, negative = inhibition, hits mostly inhibitors | purified cruzain, Z-FR-AMC fluorescence, no detergent;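 further: plate controls were enzyme without inhibitor for no effect and buffer without enzyme for full effect; nearly all actives have a fitted effect of over 40% in size; top concentration of the series not given in the record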
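Purified cruzain at 1.5 nM, pre-incubated 15 min with compound at room temperature in 100 mM sodium acetate pH 5.5, 5 mM DTT, 0.00005% Triton X-100. Reaction started with 2 uM Z-FR-AMC; AMC fluorescence increase over 60 s gives rate.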
RE007 growth inh: qHTS Assay for Inhibitors of the HIV-1 protein Vpr; S. pombe RE007 Vpr strain, BacTiter-Glo ATP luminescence, 24 h; control for the full effect not named in the record; Potency, µM (top dose mostly 92.2 µM), inactives show top-dose activity change, negative = less growth; 360,000 compounds, 0.21% hits; AID 651644, 2012; active = well fitted falling curve with a large enough effect; inconclusive = small, poorly fitted or top-dose-only effect; inactive = no such curve, though single readings can be large or run the other way;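 further: on the % scale 0 is the no-effect control and ±100 the full control effect; nearly all actives have a fitted effect of over 50% in size; the assay follows cell death caused by Vpr and the record does not say whether a fall means rescue or toxicity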
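Fission yeast strain RE007, carrying one chromosomally integrated HIV-1 vpr copy, was seeded at OD 0.01 in PMG+AL medium with 23 nL pinned compound. After 24 h at 30 °C and 99% humidity, viability was read by BacTiter-Glo luminescence.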
An asterisk follows results filed as active; ? = inconclusive; · = not tested or not shown; & = joins results of further samples; [ ] = another dose, or the depositor's remark. Unless noted, the call rests on the fitted dose curve; in most records, active means well fitted curve in the direction sought with a large enough effect; inconclusive means small, poorly fitted or top-dose-only effect, or another doubt; inactive means no such curve, though single readings can be large; an effect the other way counts as inactive or inconclusive. Potency means the concentration at half of the fitted maximal effect.

SMILES	SARS PLP yeast	NS1 function inh	Marburg entry inh	Lassa entry inh	2A StopGo	Cruzain Triton	Cruzain noTriton	RE007 growth inh
CN(C)CCNCc1ccc(OC2CCCC2)cc1	-3%	1%	?	46%[14.3 µM]	-5%	-3.5%	-1%	2%
Cc1ccc(Oc2c(C(F)(F)F)oc3c(CN4CCCCC4C)c(O)ccc3c2=O)cc1 (stereo not given)	·	·	-2%[46.1 µM]	24%[46.1 µM]	-9%	-6.9%	-2%	·
COc1ccc(Cl)cc1S(=O)(=O)NCc1nc2nc(C)cc(C)n2n1	-1%	-1%	·	·	12%	·	·	-18%
COc1cc(OC)cc(C(=O)NN2CCOCC2)c1	6%	?	-3%[46.1 µM]	20%[46.1 µM]	-16%	·	·	14%
CCOc1ccc(-c2noc(CCC(=O)NC)n2)cc1OCC	1%	-6%	5%	-1%	-10%	1.1%	-3%	25%
COc1ccc(CCC(=O)NCCS(=O)(=O)N2CCN(c3ccc(OC)cc3)CC2)cc1	-2%	-2%	-3%[46.1 µM]	-17%[46.1 µM]	?	·	·	-3%
Cc1cccc(CNC(=O)CN2C(=O)C3CCCCN3c3ccc(C(=O)N4CCCC4)cc32)c1 (stereo not given)	·	·	·	2%[46.1 µM]	24%	-0.7%	-3%	·
Cc1cnc(NC(=O)c2cc3ccccc3o2)s1	0%	3%	13µM*	-30%[46.1 µM]	-10%	·	·	-8%
O=C(CSc1nnc(NC(=O)C2CC2)s1)Nc1ccccc1C(F)(F)F	0%	2%	?	-2%	6%	·	·	7%
NS(=O)(=O)c1ccc(Nc2ccc3cc(S(=O)(=O)N4CCCCC4)ccc3n2)cc1	-4%	-1%	·	·	23%	·	·	3%
CC(=O)C1=C(O)C(=O)OC1c1ccc(C)cc1 (stereo not given)	-3%	-3%	17%[46.1 µM]	26%[46.1 µM]	-17%	·	·	9%
Cc1cccc(C)c1NC(=O)CNC(=O)c1ccc(NS(=O)(=O)c2ccc3[nH]c(=O)[nH]c3c2)cc1	0%	·	2%	5%	-12%	·	·	0%
Oc1ccc2ccccc2c1C=NC12CN3CCN(CN(C3)C1)C2	-7%	-10%	-18%&-18%	-4%	?	-5.7%	-9%	-9%
Fc1ccccc1-c1nc(N2CCN(c3cccc(Cl)c3)CC2)c2ccccc2n1	·	·	·	-21%[46.1 µM]	?	-5.9%	?	·
COc1ccc(CNC(=O)Cc2c(C)c3cc4c(C)coc4c(C)c3oc2=O)cc1	·	·	?	3%[46.1 µM]	-12%	0.6%	-2%	·
Cc1cc(O)cc2c1C1CCC3(C)C(O)CCC3C1C=C2 (stereo not given)	·	·	-26%[46.1 µM]	-27%[46.1 µM]	-8%	·	·	29%
Cc1ccc(C(=O)N2CC(C(=O)O)C2)cc1	0%	0%	-4%[46.1 µM]	-27%	-3%	·	·	-7%
CCOC(=O)C1=C(C)N(C2CCCCC2)C(=O)C1	3%	-2%	0%	-2%	8%	-1.3%	10%	4%
COC(=O)c1sccc1NC(=O)COc1ccc(C)cc1	-3%	-5%	·	·	21%	·	·	-17%
COC(=O)C1=C(c2ccccc2OCc2ccccc2)C[C@@H]2CC[C@H]1N2C(=O)NCc1ccccc1	2%	·	0%	·	-11%	·	·	7%
COc1ccccc1CNC(=O)CCc1ccccc1	2%	-4%	·	·	24%	·	·	-7%
CCOc1cc(C)nc(Oc2ccc(=O)[nH]n2)n1	0%	7%	4%	10%	11%	3.2%	7%	10%
CCOC(=O)c1sc(NC(=O)CSc2nnc(-c3ccco3)n2CC)c(C(=O)OCC)c1C	4%	27%	?	-13%	·	-17%	?	0%
CC(C)OCCCNC(=O)CCCn1c(SCC(N)=O)nc2c(sc3ccccc32)c1=O	·	·	-6%[46.1 µM]	1%[46.1 µM]	-18%	1.3%	9%	·
COc1cc(C(=O)NC2CCCCCCC2)cc(OC)c1OC	·	·	-11%[46.1 µM]	-20%	1%	·	·	12%
O=C(Cc1ccccc1)NCC(=O)OCC(=O)c1ccc(Cl)cc1	-1%	-1%	·	·	-11%	·	·	6%
Cc1nc(NC(=O)c2ccccc2)sc1-c1csc(Nc2cccc(Cl)c2)n1	-2%	14%	0%	·	·	6.4%	10µM*	·
CS(=O)(=O)c1ncc(Cl)c(C(=O)Nc2ccc3ccccc3c2)n1	-3%	-61%	8.9µM*	?	13µM*	·	·	-1%
CCC(=O)Nc1nc(C)c(C(=O)Nc2cccc(Cl)c2)s1	2%	28%	·	·	5%	·	·	-17%
Cc1ccc([N+](=O)[O-])cc1S(=O)(=O)N1CCn2cccc2C1c1ccccc1 (stereo not given)	·	·	·	1%[46.1 µM]	-14%	-1.8%	?	·
O=C1OC(c2ccccc2)Sc2ccccc21 (stereo not given)	·	·	-3%[46.1 µM]	1%[46.1 µM]	3%	·	·	-20%
O=C(c1ccc2c(c1)OCCO2)N(c1ccccn1)C1CCCCC1	-4%	-1%	-8%	2%	-17%	0.2%	1%	4%
CCn1c(Cc2ccccc2)nnc1SCC(=O)Nc1nc(C)cs1	-3%	3%	5%	9%	9%	-2.5%	-1%	4%
Cc1ccc(NC(=O)Cn2c(=O)oc3ccccc32)cc1C	-2%	11%	?	14%	10%&0%	-0.7%	-13%	-4%
Cc1ccc2c(c1)c(=O)c1c3n2CCN(C(=O)CCl)C3CC1 (stereo not given)	12%	5%	?	1%	-14%	16µM*	-22%	3%
CCOC(=O)c1ccc(NC(=O)c2cc3ccccc3o2)cc1	-21%	-70%	-27%	6%	-49%	-6.4%	12%	7%
CCCCC(=O)NC(=S)Nc1cc(C(=O)O)ccc1Cl	19%	14%	?	-5%	-9%	3.6%	0%	0%
O=C(CN1N=C(c2ccccc2)CCC1=O)NCc1cccs1	0%	·	-6%	-14%	3%	·	·	-2%
Cc1cc(C)nc(SCc2nnc(SCC(=O)Nc3nc(-c4ccccc4)cs3)n2C)n1	?	18%	-18%	2%	?	-4.8%	?	5%
O=C(NC1CCCCC1)C(c1ccc(F)cc1)N(CCN1CCOCC1)C(=O)c1ccc(-c2ccccc2)[nH]1 (stereo not given)	-1%	7%	-7%[46.1 µM]	7%	-6%	·	·	4%
CCN(C(=O)Cn1c(=O)n(Cc2ccccc2)c(=O)c2ccccc21)c1cccc(C)c1	5%	6%	?	?	-13%	-7.0%	-2%	-17%
N#C/C(=N\Nc1ccccc1)C(=N)N1CCCCC1	-7%	0%	?	-22%	8%	-4.3%	-3%	6%
CC(=O)NC1CCCN(O)C(=O)/C=C(\C)CCOC(=O)C(NC(C)=O)CCCN(O)C(=O)/C=C(\C)CCOC(=O)C(NC(C)=O)CCCN(O)C(=O)/C=C(\C)CCOC1=O (stereo not given)	2%	4%	·	·	20µM*	·	·	-7%
Cc1ccc(-c2nnc(CN3CCN(C)CC3)o2)cc1	0%	5%	-1%[46.1 µM]	22%[46.1 µM]	13%	·	·	-6%
COc1ccc(-c2noc(C3CCCN(S(=O)(=O)c4cccc(Cl)c4C)C3)n2)cc1OC (stereo not given)	9%	7%	?	4%	17%	-2.7%	?	3%
CCN(CC)c1ccc(/C=N\N2CCN(Cc3ccc(C)cc3)CC2)cc1	-1%	5%	-9%[46.1 µM]	-7%	-20%	·	·	-5%
CC1(C)CCCN(C(=O)N2c3ccccc3Sc3ccccc32)C1	-15%	13%	?	?	?	-5.2%	-2%	27%
CC1=C(C(N)=O)C(c2sccc2C)n2nnnc2N1 (stereo not given)	0%	8%	13%	-1%	4%	6.6%	9%	7%
COc1ccc(-c2nnc(SCC(=O)Nc3ccccc3OC)o2)cc1	-17%	-21%	?	-26%	23%	-3.9%	7%	16%
Cn1cc(S(=O)(=O)c2ccccc2)n(C)c1=O	0%	5%	-5%[46.1 µM]	?	-2%	·	·	5%
COc1cc2c(cc1OC)C(COc1ccccc1OC)N(C(=O)C(C)C)CC2 (stereo not given)	1%	·	9%[46.1 µM]	-9%	-2%	·	·	3%
CC(C)CNC(=O)C1CCN(c2ccc(S(=O)(=O)N3CCOCC3)cc2)CC1	-1%	-3%	-12%	0%	-26%	3.3%	9%	-14%
CCCCCCCC(=O)NNC(=O)c1ccc(F)cc1	-2%	-27%	7%	4%	7%	6.0%	5%	-1%
CC12CCC(C(=O)NCc3ccc(F)cc3)(OC1=O)C2(C)C (stereo not given)	-1%	1%	9%[46.1 µM]	16%	-12%	·	·	8%
O=C(OC(C(=O)O)C(OC(=O)c1ccccc1)C(=O)NCc1ccccc1)c1ccccc1 (stereo not given)	2%	25%	-1%	12%	9%	2.9%	-4%	5%
O=c1[nH]cnc2sc3c(c12)CCN(Cc1ccccc1)C3	3%	2%	19%	0%	?	-2.0%	-4%	13%
Cc1cccc(Cc2cnc(N3C(=N)SC(c4ccccc4)C3=O)s2)c1 (stereo not given)	-4%	?	3%	?	-3%	-0.1%	?	3%
COc1ccc2c(C)c(CC(=O)N3CCN(C(=O)C4COc5ccccc5O4)CC3)c(=O)oc2c1C (stereo not given)	-2%	-1%	·	·	-21%	·	·	-9%
Cc1ccccc1CC1(CO)CCCN(Cc2ccn[nH]2)C1 (stereo not given)	0%	-2%	2%[46.1 µM]	-5%[46.1 µM]	4%	·	·	4%
CC(=O)O[C@H]1C[C@@H]2CC[C@@H]3[C@H](CC[C@@]4(C)[C@H]3C[C@H]([N+]3(C)CCCCC3)[C@@H]4OC(C)=O)[C@@]2(C)C[C@@H]1[N+]1(C)CCCCC1	·	·	?	9%	-11%	·	·	-21%[18.4 µM]
O=C(OCC(=O)N1CCOCC1)c1ccc(Cl)nc1	4%	1%	10%	25%	20%	3.0%	4%	3%
Cc1cc(NC(=O)CSc2nnnn2C)n(-c2ccccc2)n1	1%	?	?	-6%	-13%	1.6%	-18%	7%
